Vaccinia stage = Vaccinia orthopox stage-specific inhibition. Vaccinia-infected cells, mCherry/Venus stage reporter fluorescence; hits give low values; some inactives read as strong as hits. activity change (mCherry), % (test concentration not listed). 0.01% of 89,000 active. AID 1053133;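 active = mCherry past -33% and 40 or more points under the early reporter, replicates agreeing; inconclusive = past -33% without that gap or agreement; tested in A549 cells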;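 note: scaled between vehicle wells and reference inhibitor wells; 23 nL library stock went into each well; one replicate is shown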
Vaccinia stage Venus = further read-out of Vaccinia stage, marked with its call; activity change (Venus), %; measured here: Venus reporter, other viral stage;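 negative = less Venus signal; first of two replicates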
Starred values were filed as active, the others as inactive; u = inconclusive; x = not tested or not shown. These rows are one share of the data, so the mix of outcomes need not match the whole.

SMILES,Vaccinia stage,Vaccinia stage Venus
O=C(C[C@H]1CC[C@@H]2[C@H](COC[C@H](O)CN2S(=O)(=O)c2ccccc2F)O1)NCc1ccccc1Cl,-18.6,-13.9
Cc1ccc(-c2cnc3c(c2)C(=O)N([C@H](C)CO)C[C@@H](C)[C@@H](CN(C)C(=O)c2ccccc2)O3)cc1,2.3,0.5
C[C@@H](NC(=O)C[C@H]1C=C[C@@H](NC(=O)C2CCC2)[C@H](CO)O1)c1ccccc1,1.1,2.3
Cc1noc(C)c1NC(=O)N(C)C[C@H]1OCCCC[C@@H](C)Oc2ccc(NS(=O)(=O)c3ccc(F)cc3)cc2C(=O)N([C@H](C)CO)C[C@H]1C,9.1,7.2
C[C@H]1CN([C@@H](C)CO)C(=O)c2cc(-c3ccc(C#N)cc3)cnc2O[C@H]1CN(C)C(=O)c1cccnc1,2.4,-6.3
CCCC(=O)Nc1ccc2c(c1)OC[C@@H](C)N(C(=O)c1cnccn1)C[C@@H](C)[C@H](OC)CN(C)C2=O,3.4,7.2
Cc1noc(C)c1NC(=O)Nc1ccc2c(c1)C(=O)N([C@@H](C)CO)C[C@H](C)[C@@H](CN(C)Cc1ccncc1)OCCCC[C@@H](C)O2,13.1,7.3
CO[C@H]1CN(C)C(=O)c2ccc(NC(=O)Cc3ccccc3)cc2OC[C@H](C)NC[C@H]1C,-4.4,-3.0
C[C@H](CO)N1C[C@H](C)[C@H](CN(C)S(=O)(=O)c2ccc(Cl)cc2)Oc2c(NS(=O)(=O)c3cn(C)cn3)cccc2C1=O,13.6,1.0
COc1ccc2c3c([nH]c2c1)[C@@H](CO)N(Cc1ccncc1)CC31CN(C(=O)CN(C)C)C1,1.0,3.3
Cc1noc(C)c1NC(=O)N(C)C[C@@H]1Oc2ccc(N(C)C)cc2C(=O)N([C@@H](C)CO)C[C@@H]1C,8.4,8.6
CC(C)C#Cc1ccc2c(c1)O[C@@H](CN(C)Cc1ccccc1)[C@@H](C)CN([C@@H](C)CO)S2(=O)=O,-32.7,-20.4

Given with values under each structure: entries from further up
Results follow in this order: Vaccinia stage | Vaccinia stage Venus
Cc1noc(C)c1NC(=O)N(C)C[C@@H]1Oc2ccc(N(C)C)cc2C(=O)N([C@@H](C)CO)C[C@@H]1C
→ 8.4 | 8.6
CC(C)C#Cc1ccc2c(c1)O[C@@H](CN(C)Cc1ccccc1)[C@@H](C)CN([C@@H](C)CO)S2(=O)=O
→ -32.7 | -20.4

(list continues)
SMILES,Vaccinia stage,Vaccinia stage Venus
CCC(=O)N1CC2(CN(C(=O)Nc3c(C)noc3C)C2)c2c([nH]c3cc(OC)ccc23)[C@@H]1CO,20.3,6.1
CO[C@@H]1CN(C)C(=O)c2cc(NC(=O)C3CC3)ccc2OC[C@H](C)N(CC2CCOCC2)C[C@@H]1C,14.6,18.5
C[C@@H]1CN([C@H](C)CO)C(=O)c2cccc(NS(C)(=O)=O)c2O[C@H]1CN(C)C(=O)Nc1ccc(F)cc1,12.0,4.0
C[C@H](CO)N1C[C@H](C)[C@@H](CN(C)C(=O)Nc2cccc3ccccc23)Oc2c(NS(=O)(=O)c3ccccc3)cccc2C1=O,22.6,22.6
Cc1ccccc1S(=O)(=O)N1CC(=O)N2[C@H](C1)[C@H](c1ccc(C#Cc3ccccc3)cc1)[C@@H]2CO,-18.9,-20.2
O=C(C[C@@H]1CC[C@H]2[C@@H](COC[C@@H](O)CN2S(=O)(=O)c2ccc(F)cc2)O1)N[C@@H]1CCN(Cc2ccccc2)C1,-18.2,-10.7
CO[C@@H]1CN(C)C(=O)c2cc(NS(=O)(=O)c3cn(C)cn3)ccc2OC[C@@H](C)N(Cc2cccc(F)c2)C[C@H]1C,2.7,3.0
C[C@@H]1CN([C@@H](C)CO)S(=O)(=O)c2ccc(C#Cc3cccc(F)c3)cc2O[C@@H]1CN(C)CC1CC1,-26.1,-21.3
C/C=C/c1ccc2c(c1)O[C@H](CN(C)C(=O)c1cccnc1)[C@H](C)CN([C@@H](C)CO)S2(=O)=O,5.2,0.6
C[C@H](CO)N1C[C@H](C)[C@@H](CN(C)C(=O)Nc2cccc3ccccc23)Oc2ccc(NC(=O)CCCN(C)C)cc2C1=O,6.7,13.1
CCCNC(=O)N1CC2(CN(C(=O)COC)C2)c2c(n(C)c3cc(OC)ccc23)[C@H]1CO,17.4,0.6
CN1C(=O)c2cc(NC(=O)c3ccccc3Cl)ccc2OC[C@H]2O[C@@H](CC(=O)NCC(F)(F)F)CC[C@H]21,6.5,10.7
CCC(=O)N(C)C[C@H]1Oc2cc(C#Cc3cccnc3)ccc2S(=O)(=O)N([C@H](C)CO)C[C@@H]1C,12.7,1.5
O=C(C[C@H]1CC[C@H](NC(=O)c2cccnc2)[C@H](CO)O1)NCc1ccncn1,4.8,11.3
COc1ccc(S(=O)(=O)Nc2cccc3c2O[C@@H](CN(C)Cc2ccccc2)[C@@H](C)CN([C@@H](C)CO)C3=O)cc1,5.8,5.3
COCC(=O)N(C)C[C@H]1Oc2cc(-c3cncnc3)ccc2S(=O)(=O)N([C@H](C)CO)C[C@@H]1C,17.8,12.0
O=C(c1ccc2c(c1)OCO2)N1CC2(C1)[C@@H](c1ccccc1)[C@H](CO)N2C(=O)C1CCC1,23.0,19.3
CCNC(=O)Nc1ccc2c(c1)C(=O)N(C)[C@H]1CC[C@H](CC(=O)Nc3ccccc3OC)O[C@@H]1CO2,12.5,-1.6
C#CCNC(=O)C1=C[C@H](C2CCCCC2)C[C@H](OCCCCO)O1,6.1,1.1
CO[C@@H]1CN(C)C(=O)c2cc(NC(=O)Nc3ccc(Cl)cc3)ccc2OC[C@H](C)N(C)C[C@@H]1C,-28.8,-29.2
CC(C)(C)[S@@](=O)N1Cc2cc(C(=O)N3CCOCC3)nc(-c3cccc(Br)c3)c2[C@H]1CCO,16.2,13.7
COC(=O)C[C@H]1C[C@@H]2c3cc(NC(=O)CC4CC4)ccc3O[C@@H]2[C@@H](CO)O1,6.4,7.2
C[C@@H]1CN([C@H](C)CO)C(=O)Cc2cc(N(C)C)ccc2O[C@H]1CN(C)C(=O)NC1CCCCC1,12.7,12.8
Cc1noc(C)c1NC(=O)N(C)C[C@H]1OCCCC[C@@H](C)Oc2ccc(NS(=O)(=O)c3ccc(Cl)cc3)cc2C(=O)N([C@H](C)CO)C[C@H]1C,3.0,-0.8
N#C[C@@H]1[C@@H](c2ccccc2-c2ccccc2)[C@@H](CO)N1C(=O)NC1CCCC1,0.1,0.2
COCCNC(=O)C[C@@H]1C[C@@H]2c3cc(NC(=O)C4CCOCC4)ccc3O[C@@H]2[C@@H](CO)O1,-0.6,-2.2
COCC(=O)Nc1ccc2c(c1)C(=O)N(C)C[C@H](OC)[C@@H](C)CN(Cc1ccccc1OC)[C@@H](C)CO2,13.4,2.9
CCN1[C@@H]2c3ccc(C4=CCCC4)c(=O)n3C[C@@H]2[C@@H](CO)[C@@H]1C(=O)NCc1ccccn1,12.7,13.3
C[C@@H]1CN([C@@H](C)CO)S(=O)(=O)c2ccc(C#C[C@@H](C)O)cc2O[C@H]1CN(C)CC1CCCC1,11.8,-1.4
C[C@H]1CN([C@@H](C)CO)C(=O)c2cc(NC(=O)Cc3ccccc3)ccc2O[C@H]1CN(C)Cc1ccc(Cl)c(Cl)c1,-33.9,-22.0
C[C@H](CO)N1C[C@H](C)[C@@H](CN(C)S(C)(=O)=O)OCCCC[C@H](C)Oc2ccc(NC(=O)Cc3ccccc3)cc2C1=O,-0.2,-0.3
CO[C@H]1CN(C)C(=O)c2cc(NC(=O)c3cc(C)on3)ccc2OC[C@@H](C)N(C(C)=O)C[C@@H]1C,2.9,1.0
CCCNC(=O)[C@@H]1[C@@H](CO)[C@@H]2Cn3c(ccc(-c4ccccc4)c3=O)[C@@H]2N1CC1CC1,5.0,0.5
C[C@H](CO)N1C[C@H](C)[C@H](CN(C)S(=O)(=O)c2cn(C)cn2)Oc2ncc(-c3ccc(F)cc3)cc2C1=O,12.0,6.8
C[C@@H]1CN([C@H](C)CO)C(=O)c2cccc(NC(=O)C3CC3)c2O[C@H]1CN(C)CC1CCCCC1,-5.4,-3.7
CC(C)C(=O)Nc1ccc2c(c1)C(=O)N(C)[C@H]1CC[C@@H](CC(=O)O)O[C@@H]1CO2,8.3,-1.2

2 entries from above, with two lines to a compound:
Results follow in this order: Vaccinia stage, Vaccinia stage Venus
C[C@H](CO)N1C[C@H](C)[C@H](CN(C)S(=O)(=O)c2cn(C)cn2)Oc2ncc(-c3ccc(F)cc3)cc2C1=O
    12.0, 6.8
C[C@@H]1CN([C@H](C)CO)C(=O)c2cccc(NC(=O)C3CC3)c2O[C@H]1CN(C)CC1CCCCC1
    -5.4, -3.7

Later entries
SMILES,Vaccinia stage,Vaccinia stage Venus
CC(C)CC#Cc1ccc([C@H]2[C@H](CO)N3CCCCN(C(=O)c4ccc5c(c4)OCO5)C[C@@H]23)cc1,-23.9,-32.6
CC(C)NC(=O)N(C)C[C@H]1OCCCC[C@@H](C)Oc2ccc(NS(=O)(=O)c3cn(C)cn3)cc2C(=O)N([C@H](C)CO)C[C@@H]1C,10.2,6.6
C[C@H](CO)N1C[C@H](C)[C@@H](CN(C)Cc2ccncc2)Oc2ccc(NC(=O)C3CC3)cc2CC1=O,17.5,8.8
C[C@@H]1CN([C@H](C)CO)C(=O)c2cc(-c3ccc(C#N)cc3)cnc2O[C@@H]1CN(C)C(=O)Nc1ccc(F)cc1,11.6,9.0
C[C@H]1CN([C@@H](C)CO)C(=O)c2cc(N(C)C)ccc2O[C@H]1CN(C)C(=O)Nc1ccc2c(c1)OCO2,12.6,8.5
O=C(c1cccc(F)c1)N1C[C@@H]2[C@H](c3ccccc31)[C@H](CO)N2C(=O)c1ccc(F)cc1,14.9,13.8
COc1ccc(CN(C)C[C@H]2Oc3ccc(NC(=O)C4CCCCC4)cc3CC(=O)N([C@@H](C)CO)C[C@H]2C)cc1,-1.0,4.1
CNC[C@H]1Oc2ccc(NC(=O)Nc3ccc(C(F)(F)F)cc3)cc2CC(=O)N([C@H](C)CO)C[C@H]1C,-3.7,4.3
CCS(=O)(=O)N1CCCCN2[C@H](CO)[C@@H](c3ccc(C#Cc4ccccc4OC)cc3)[C@H]2C1,-7.3,-2.2
Cc1ccc(S(=O)(=O)NC[C@@H]2CC[C@@H]3[C@@H](CN3Cc3cc(-c4ccccc4)on3)O2)cc1,-1.1,9.7
C[C@@H]1CN([C@@H](C)CO)S(=O)(=O)c2ccc(C#C[C@@H](C)O)cc2O[C@@H]1CN(C)C(=O)c1ccccc1,9.5,0.4
C[C@@H]1CN([C@H](C)CO)C(=O)c2cccc(NC(=O)c3cnccn3)c2O[C@H]1CN(C)C(=O)Nc1ccc(C(F)(F)F)cc1,5.3,4.9
COC(=O)c1ccc(CN2CC(=O)N3[C@@H](CO)[C@H](c4ccc(-c5ccccc5F)cc4)[C@@H]3C2)cc1,-3.7,-8.0
Cc1ccc(-c2cnc3c(c2)C(=O)N([C@@H](C)CO)C[C@@H](C)[C@@H](CN(C)C)O3)cc1,-14.1,-21.3
C[C@@H]1CN([C@H](C)CO)C(=O)c2c(c3ccccc3n2C)-c2ccccc2CO[C@@H]1CN(C)C(=O)Nc1ccc2c(c1)OCO2,-18.8,-11.3
CC(=O)N1CCCCN2[C@H](CO)[C@H](c3ccc(Br)cc3)[C@H]2C1,12.9,6.1
O=C(NCc1ccccc1)[C@@H]1[C@@H](CO)[C@@H]2Cn3c(cccc3=O)[C@H]1N2Cc1ccccn1,-0.3,2.7
Cc1ccc(S(=O)(=O)N(C)C[C@@H]2Oc3ccc(NC(=O)Nc4c(C)noc4C)cc3C(=O)N([C@H](C)CO)C[C@H]2C)cc1,11.5,5.6
Cc1ccc(-c2ccc([C@H]3[C@H](CO)N4CCCCN(Cc5cncnc5)C[C@@H]34)cc2)cc1,-20.2,-16.5
C[C@@H]1CCCCO[C@@H](CN(C)Cc2ccncc2)[C@H](C)CN([C@H](C)CO)C(=O)c2cc(NS(C)(=O)=O)ccc2O1,10.2,3.9
C[C@@H]1CN([C@@H](C)CO)S(=O)(=O)c2ccc(C#Cc3ccccc3)cc2O[C@H]1CN(C)C,-26.7,-21.5
COc1ccc(S(=O)(=O)Nc2ccc3c(c2)C(=O)N([C@H](C)CO)C[C@H](C)[C@H](CN(C)Cc2ccc4c(c2)OCO4)O3)cc1,-1.7,-1.2
C[C@H]1CCCCO[C@H](CN(C)C(=O)NC2CCCCC2)[C@@H](C)CN([C@@H](C)CO)C(=O)c2cc(N(C)C)ccc2O1,-14.7,-8.7
C[C@H](CO)N1C[C@H](C)[C@@H](CN(C)C)Oc2ccc(NC(=O)CCCN(C)C)cc2C1=O,22.3,6.9
CCCC#Cc1ccc([C@@H]2[C@@H](CO)N3C(=O)CN(C(=O)CN4CCOCC4)C[C@H]23)cc1,-14.5,-8.5
CCC(=O)Nc1ccc2c(c1)C(=O)N(C)C[C@H](OC)[C@H](C)CN(C(=O)c1ccc(F)cc1)[C@H](C)CO2,-1.8,4.4
CNC[C@H]1OCCCC[C@H](C)Oc2ccc(NC(=O)NC(C)C)cc2C(=O)N([C@@H](C)CO)C[C@H]1C,23.3,9.7
CO[C@@H]1CN(C)C(=O)c2cc(NS(C)(=O)=O)ccc2OC[C@@H](C)N(Cc2nccs2)C[C@@H]1C,13.7,3.7
O=C(c1ccc2c(c1)OCO2)N1CC(=O)N2[C@@H](CO)[C@H](c3ccc(C#CCC4CCCC4)cc3)[C@@H]2C1,u,x
C[C@H]1CN([C@@H](C)CO)C(=O)c2cc(/C=C/c3ccccc3)cnc2O[C@@H]1CN(C)Cc1ccccc1,u,x
CN1C(=O)c2cc(NC(=O)C3CCCC3)ccc2OC[C@@H]2O[C@H](CC(=O)NCC3CC3)CC[C@H]21,2.4,-1.8
OC[C@@H]1[C@H](c2ccc(-c3ccc(F)cc3)cc2)[C@H]2CN(Cc3cccnc3)CCCCN12,-34.9,-28.8

Compound activity (PubChem BioAssay)
